High-throughput results from PubChem BioAssay.
Ecoli growth: E. coli growth inhibition. Escherichia coli growth, OD600, 23 h; stronger effect = lower value. OD600 absorbance (test concentration not listed). hit rate 0.21% among 330,000. AID 1053175;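 active = OD600 absorbance below the run mean of sample wells minus 3.6 SD, in any replicate, cut at about 0.56 in these data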;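 note: stock transfer was 300 nL into about 60 µL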
Vif TR-FRET: HIV-1 Vif–A3G interaction blockers – biochemical, TR-FRET, GST-Vif 1-94, biotin-A3G peptide, dose response retest, primary screen (AID 1117319). TR-FRET GST-Vif / biotin-A3G peptide binding; higher % means a stronger effect; test concentration not given here; strong numbers were not always called active. one-dose inhibition, %; IC50 in µM for titrated hits. hit rate 0.57% among 260,000;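 active = above the screen mean plus three standard deviations and confirmed in dose response; inconclusive = results disagree or hit not tested in dose response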;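 note: Vif residues 1-94 fused to GST binding biotinylated APOBEC3G peptide 110-148; 0% = full assay without inhibitor and 100% = GST in place of GST-Vif; retest series ran down from 100 µM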
AF4-AF9 inh: inhibitors of human MLL-AF4/AF9 interaction. AlphaScreen, biotin-AF4 peptide binding to FLAG-AF9. inhibition, % at 10 µM. hit rate 0.47% among 350,000;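 active = every replicate reaching a set inhibition limit, whatever the replicate mean, cut at about 25% in these data; inconclusive = mean inhibition reaches that limit but some replicates miss it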;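 note: 0% = plate neutral control median and 100% = total signal loss; the record names both 10 and 1 µM as test concentration; the first replicate is given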
UCH37 inh: blocks the human deubiquitinase UCH37 | Q9Y5K5 | purified proteasome/UCH37, Ub-AMC cleavage fluorescence | inhibition, % (test concentration not listed) | hit rate 0.33% among 330,000 | AID 588478;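 active = mean of two replicates above 20%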;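 note: 0% = compound-free wells with enzyme and 100% = wells lacking proteasome; stock transfer was 100 nL into about 20 µL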
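Material: Human UCH37 enzyme supplied as purified proteasome complex | Schedule: 30 min compound-proteasome preincubation then 25 min substrate reaction, room temperature | Detection: AMC fluorescence from Ub-AMC cleavage, excitation 355 nm, emission 460 nm | Benchmarks: Wells without proteasome as full block, compound-free enzyme plus substrate as uninhibited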
FGF22 binding: binders of recombinant human FGF22 by thermal shift. Q9HCT0. SYPRO orange fluorescence; percent of sucrose octasulfate shift, DMSO zero. calls only at 9.99 µM. hit rate 1.5% among 340,000. AID 651658;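 active = melting point raised past a set limit in the mean and every replicate; inconclusive = no clear call; three in four hits are not shown here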
Target sequence (Q9HCT0 whole entry, looked up): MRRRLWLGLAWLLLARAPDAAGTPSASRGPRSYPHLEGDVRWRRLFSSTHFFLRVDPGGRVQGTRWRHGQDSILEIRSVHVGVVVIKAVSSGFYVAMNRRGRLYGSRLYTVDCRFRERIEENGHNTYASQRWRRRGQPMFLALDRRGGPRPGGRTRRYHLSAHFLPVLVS
RanGTP-Impb inh: disruptors of Ran-importin-beta complex formation – biochemical, FRET, CFP-Ran, YFP-importin-beta, homogeneous, primary screen; cell-free CFP-Ran/YFP-importin-beta FRET ratio; inhibition, % (concentration not given with the values); hit rate 1.1% among 300,000; AID 2216;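 active = most replicates above 15%; inconclusive = exactly half above 15%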;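 note: 0% = DMSO wells and 100% = Ran loaded with GDP instead of GTP; wells of about 40 µL received 100 nL stock; the first replicate is given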
HNF4A DNA FP: change in binding of human HNF4 alpha to DNA. AID 1224865. hit rate 0.3% among 360,000. P41235. activity change, % at 10 µM. HNF4a-FITC DNA binding, fluorescence polarization, 1 h; in the data active = activity change above about 30%, passing the limit was not always enough;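 note: controls were the assay level and a saturating level of protein; the project sought stronger binding though the title names inhibitors; some compounds called inactive have numbers as strong as hits; positive values seem to mean higher polarization but the record does not say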
Target sequence (P41235 whole entry, looked up): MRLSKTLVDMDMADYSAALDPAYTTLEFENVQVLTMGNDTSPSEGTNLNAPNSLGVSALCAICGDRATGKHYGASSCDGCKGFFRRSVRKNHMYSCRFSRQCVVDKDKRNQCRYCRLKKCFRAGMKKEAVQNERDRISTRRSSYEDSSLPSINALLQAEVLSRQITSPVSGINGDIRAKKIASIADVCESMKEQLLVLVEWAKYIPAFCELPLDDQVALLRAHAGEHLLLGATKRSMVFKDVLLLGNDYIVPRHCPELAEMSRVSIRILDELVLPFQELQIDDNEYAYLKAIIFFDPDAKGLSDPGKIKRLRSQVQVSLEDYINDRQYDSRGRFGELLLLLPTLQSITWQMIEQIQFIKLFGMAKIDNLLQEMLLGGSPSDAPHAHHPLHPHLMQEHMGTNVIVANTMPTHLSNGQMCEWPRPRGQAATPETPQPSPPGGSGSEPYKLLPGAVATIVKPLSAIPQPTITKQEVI
Numbers without * were called inactive; i = inactive; ? = inconclusive; . = no result given. Some of the compounds tested; count on the stated rates, not on these rows.

| SMILES | Ecoli growth | Vif TR-FRET | AF4-AF9 inh | UCH37 inh | FGF22 binding | RanGTP-Impb inh | HNF4A DNA FP |
| --- | --- | --- | --- | --- | --- | --- | --- |
| COc1cc2ccccc2cc1C(=O)N(CCN(C)C)c1nc2c(OC)ccc(OC)c2s1 | 0.689 | . | 50.1* | 6.3 | i | 2.1 | 6.0 |
| Cc1nc2ccccc2nc(C)c1=NOCc1cccc(Cl)c1 | 0.769 | -4.4% | 5.9 | 8.5 | i | 0.8 | 2.4 |
| Cc1onc(-c2ccccc2)c1C(=O)N/N=C/c1cn(C)c2ccccc12 | . | 2.9% | 11.6 | . | i | -2.7 | 2.1 |
| CCN(CC)S(=O)(=O)c1ccc2c(c1)nc(SCC(N)=O)n2-c1ccc(OC)cc1 | 0.678 | -0.6% | . | 0.0 | . | 0.3 | 1.4 |
| CCOC(=O)C1CCCN(C(=O)c2ccc(Cl)cc2)C1 (centres undefined) | 0.69 | ? | 0.0 | 5.3 | i | 4.2 | 2.0 |
| N#Cc1ccc(/C=C\c2nccc3c2[nH]c2ccccc23)cc1 | 0.741 | 0.7% | -9.6 | -140.4 | . | 102.7* | 15.8 |
| O=[N+]([O-])c1ccc2nc(-c3ccccc3[N+](=O)[O-])[nH]c2c1 | 0.645 | 1.0% | 0.2 | 5.9 | i | -1.5 | -1.7 |
| CC(C)CC(=O)Nc1ccc(C(=O)COc2ccc(-c3nnco3)cc2)cc1 | 0.71 | 8.2% | . | -0.6 | . | . | 6.5 |
| COc1cc(-c2noc(C)c2C(=O)NCCc2cccs2)cc(OC)c1OC | 0.63 | . | 3.1 | 2.1 | i | . | 4.1 |
| Cn1c(=O)c2c(nc(Cl)n2CCOc2ccccc2)n(C)c1=O | 0.679 | . | 0.5 | -3.0 | i | -0.3 | -1.2 |
| O=C(CN1C(=O)NC(Cc2c[nH]c3ccccc23)C1=O)NCCc1ccccc1 (centres undefined) | 0.679 | . | -1.8 | 2.0 | i | 5.1 | 0.1 |
| O=S(=O)(c1ccc(Cl)cc1)n1cccn1 | 0.674 | 4.2% | -2.7 | -0.9 | i | 2.3 | -6.3 |

The closing 2 records of the section before lead into the next:
| SMILES | Ecoli growth | Vif TR-FRET | AF4-AF9 inh | UCH37 inh | FGF22 binding | RanGTP-Impb inh | HNF4A DNA FP |
| --- | --- | --- | --- | --- | --- | --- | --- |
| O=C(CN1C(=O)NC(Cc2c[nH]c3ccccc23)C1=O)NCCc1ccccc1 (centres undefined) | 0.679 | . | -1.8 | 2.0 | i | 5.1 | 0.1 |
| O=S(=O)(c1ccc(Cl)cc1)n1cccn1 | 0.674 | 4.2% | -2.7 | -0.9 | i | 2.3 | -6.3 |
| COC(=O)C1C(O)=C(C=NCc2ccccc2)C(=O)CC1(C)C (centres undefined) | 0.71 | 18.6% | . | 1.2 | . | -2.7 | 0.7 |
| O=C(CSc1ncnc2scc(-c3ccccc3)c12)N1CCN(c2ccccc2F)CC1 | 0.721 | -41.5% | -7.3 | 2.2 | i | 3.1 | 0.5 |
| CC(C)CN(C(=O)C1COc2ccccc2O1)c1c(N)n(CC(C)C)c(=O)[nH]c1=O (centres undefined) | 0.7 | 1.3% | -0.3 | -1.2 | i | . | -4.4 |
| Cc1cc(C)n2nc(C(=O)Nc3c(C)nn(Cc4ccc(F)cc4)c3C)cc2n1 | 0.697 | 9.8% | -8.7 | -10.0 | i | -6.8 | -1.5 |
| CCn1c(SCc2ccccc2Cl)nc2ccccc21 | 0.792 | 1.9% | . | 5.4 | . | -1.4 | -1.2 |
| CCn1c(=O)cc(SCC(=O)Nc2ccc3c(c2)OCO3)c2ccccc21 | 0.709 | -5.6% | 4.4 | -0.1 | i | 2.2 | -0.6 |
| Cc1c(C(=O)N/N=C/c2ccccc2)sc(=S)n1C | . | -2.3% | . | . | . | 4.6 | -1.5 |
| CCc1cc(=O)oc2cc(C)cc(OCC(C)=O)c12 | 0.696 | -2.7% | -0.3 | -100.3 | i | 1.2 | -2.8 |
| O=C(NCc1cccc(Cl)c1)c1ccc2ccccc2n1 | 0.701 | . | -3.0 | 1.6 | i | -0.4 | 0.6 |
| CCOC(=O)c1ccc(NC(=S)N(CCCN2CCCC(C)C2)Cc2ccco2)cc1 (centres undefined) | 0.693 | . | . | 5.6 | . | 1.4 | -1.1 |
| CSc1nsc(/C=C/Nc2ccc(O)cc2C)c1C#N | 0.669 | ? | -0.1 | 2.6 | i | 7.6 | 110.7 |
| C=CCOC(=O)C1=C(C)Nc2nnnn2C1c1cccc(OC)c1OC (centres undefined) | 0.662 | 3.3% | . | 2.3 | . | 3.0 | -1.0 |

In a second layout: results already given
Screens in order: Ecoli growth | Vif TR-FRET | AF4-AF9 inh | UCH37 inh | FGF22 binding | RanGTP-Impb inh | HNF4A DNA FP
CCOC(=O)C1CCCN(C(=O)c2ccc(Cl)cc2)C1 (centres undefined)
 : 0.69 | ? | 0.0 | 5.3 | i | 4.2 | 2.0
N#Cc1ccc(/C=C\c2nccc3c2[nH]c2ccccc23)cc1
 : 0.741 | 0.7% | -9.6 | -140.4 | . | 102.7* | 15.8
O=[N+]([O-])c1ccc2nc(-c3ccccc3[N+](=O)[O-])[nH]c2c1
 : 0.645 | 1.0% | 0.2 | 5.9 | i | -1.5 | -1.7
CC(C)CC(=O)Nc1ccc(C(=O)COc2ccc(-c3nnco3)cc2)cc1
 : 0.71 | 8.2% | . | -0.6 | . | . | 6.5
COc1cc(-c2noc(C)c2C(=O)NCCc2cccs2)cc(OC)c1OC
 : 0.63 | . | 3.1 | 2.1 | i | . | 4.1
Cn1c(=O)c2c(nc(Cl)n2CCOc2ccccc2)n(C)c1=O
 : 0.679 | . | 0.5 | -3.0 | i | -0.3 | -1.2
O=C(CN1C(=O)NC(Cc2c[nH]c3ccccc23)C1=O)NCCc1ccccc1 (centres undefined)
 : 0.679 | . | -1.8 | 2.0 | i | 5.1 | 0.1
O=S(=O)(c1ccc(Cl)cc1)n1cccn1
 : 0.674 | 4.2% | -2.7 | -0.9 | i | 2.3 | -6.3
COC(=O)C1C(O)=C(C=NCc2ccccc2)C(=O)CC1(C)C (centres undefined)
 : 0.71 | 18.6% | . | 1.2 | . | -2.7 | 0.7
O=C(CSc1ncnc2scc(-c3ccccc3)c12)N1CCN(c2ccccc2F)CC1
 : 0.721 | -41.5% | -7.3 | 2.2 | i | 3.1 | 0.5
CC(C)CN(C(=O)C1COc2ccccc2O1)c1c(N)n(CC(C)C)c(=O)[nH]c1=O (centres undefined)
 : 0.7 | 1.3% | -0.3 | -1.2 | i | . | -4.4
Cc1cc(C)n2nc(C(=O)Nc3c(C)nn(Cc4ccc(F)cc4)c3C)cc2n1
 : 0.697 | 9.8% | -8.7 | -10.0 | i | -6.8 | -1.5
CCn1c(SCc2ccccc2Cl)nc2ccccc21
 : 0.792 | 1.9% | . | 5.4 | . | -1.4 | -1.2
CCn1c(=O)cc(SCC(=O)Nc2ccc3c(c2)OCO3)c2ccccc21
 : 0.709 | -5.6% | 4.4 | -0.1 | i | 2.2 | -0.6
Cc1c(C(=O)N/N=C/c2ccccc2)sc(=S)n1C
 : . | -2.3% | . | . | . | 4.6 | -1.5
CCc1cc(=O)oc2cc(C)cc(OCC(C)=O)c12
 : 0.696 | -2.7% | -0.3 | -100.3 | i | 1.2 | -2.8
O=C(NCc1cccc(Cl)c1)c1ccc2ccccc2n1
 : 0.701 | . | -3.0 | 1.6 | i | -0.4 | 0.6

Further structures.
| SMILES | Ecoli growth | Vif TR-FRET | AF4-AF9 inh | UCH37 inh | FGF22 binding | RanGTP-Impb inh | HNF4A DNA FP |
| --- | --- | --- | --- | --- | --- | --- | --- |
| COc1ccc(C(=O)Nc2ccccc2Cc2ccccc2)c(OC)c1 | 0.686 | . | -3.3 | 0.4 | i | -0.5 | -1.7 |
| CC(/C=C1\NC(=S)NC1=O)=C\c1ccccc1 | . | ? | 4.4 | . | i | -2.0 | -0.7 |
| Cc1c(C(=O)O)sc2c1c(=O)n(Cc1ccccc1)c(=O)n2C | 0.672 | 0.5% | -0.1 | 2.8 | i | -3.3 | 2.4 |
| Cc1cccc(NS(=O)(=O)c2cccc3nsnc23)c1 | 0.722 | -4.3% | . | 2.5 | . | -5.6 | -1.1 |
| Cc1ccc(CNC(=O)C2CCC(CNS(=O)(=O)c3cccs3)CC2)cc1 (centres undefined) | 0.71 | . | 0.9 | 1.7 | i | 0.1 | 1.7 |
| CN(c1ccccc1C(=O)Nc1ccc(S(=O)(=O)N2CCCCC2)cc1)S(C)(=O)=O | 0.703 | 3.5% | . | 1.7 | . | -2.9 | -0.1 |
| N#CCCCCn1c(-c2cncs2)nc2ccccc21 | 0.694 | -2.8% | . | 0.1 | . | 0.9 | -3.2 |
| CC(C)CNc1cc(N2CCCC2)ccc1[N+](=O)[O-] | 0.704 | 5.8% | 13.2 | 5.5 | i | -1.2 | -5.0 |
| N#CCSc1nnc(-c2ccc(S(=O)(=O)N3CCOCC3)cc2)n1CC1CCCO1 (centres undefined) | 0.663 | 6.2% | . | 5.1 | . | -4.9 | 3.3 |
| Nc1[nH]c(C(=O)c2ccccc2)c(-c2cccnc2)c1C(=O)NC1CCCCC1 | . | . | 1.9 | . | i | . | -3.9 |
| CN(CCO)c1nc(NCc2ccccc2)c2cnn(C)c2n1 | 0.692 | . | -3.6 | -2.1 | i | 1.4 | 0.3 |
| COc1ccc2nc(NC(=O)C3=NN(c4ccccc4)C(=O)CC3)sc2c1 | 0.679 | . | 1.1 | 0.0 | i | 3.1 | 2.3 |
